FGF22 binding = FGF22 (human) thermal shift binding | Q9HCT0 | recombinant FGF22 thermal shift, SYPRO orange fluorescence; percent of sucrose octasulfate shift, DMSO zero | calls only at 9.99 µM | 1.5% of 340,000 active | AID 651658;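 active means melting point raised past a set limit in the mean and every replicate; inconclusive means no clear call; three in four hits are not shown here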
Target sequence (Q9HCT0 whole entry, looked up): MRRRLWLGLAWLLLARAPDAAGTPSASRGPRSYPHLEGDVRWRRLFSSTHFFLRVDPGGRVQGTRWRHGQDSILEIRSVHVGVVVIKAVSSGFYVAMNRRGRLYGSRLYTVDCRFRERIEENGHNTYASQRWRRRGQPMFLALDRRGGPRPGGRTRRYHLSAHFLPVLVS
RanGTP-Impb inh = disruptors of Ran-importin-beta complex formation – biochemical, FRET, CFP-Ran, YFP-importin-beta, homogeneous, primary screen. 1.1% of 300,000 active. cell-free CFP-Ran/YFP-importin-beta FRET ratio. inhibition, % (test concentration not listed);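 active means most replicates above 15%; inconclusive means exactly half above 15%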;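 further: 0% = DMSO wells and 100% = Ran loaded with GDP instead of GTP; wells of about 40 µL received 100 nL stock; the first replicate is given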
AF4-AF9 inh = inhibitors of human MLL-AF4/AF9 interaction | AlphaScreen, biotin-AF4 peptide binding to FLAG-AF9 | inhibition, % at 10 µM | 0.47% of 350,000 active | P42568;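 active means every replicate reaching a set inhibition limit, whatever the replicate mean, cut at about 25% in these data; inconclusive means mean inhibition reaches that limit but some replicates miss it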;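 further: 0% = plate neutral control median and 100% = total signal loss; the record names both 10 and 1 µM as test concentration; the first replicate is given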
Vif TR-FRET = inhibitors of Vif binding to APOBEC3G peptide, primary screen, biochemical, TR-FRET, GST-Vif 1-94, biotin-A3G peptide, dose response retest (AID 1117319); TR-FRET GST-Vif / biotin-A3G peptide binding; higher % means a stronger effect; test concentration not given here; strong numbers were not always called active; inhibition, %; hits with a dose series show IC50 in µM; 0.57% of 260,000 active;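 active means above the screen mean plus three standard deviations and confirmed in dose response; inconclusive means results disagree or hit not tested in dose response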;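 further: Vif residues 1-94 fused to GST binding biotinylated APOBEC3G peptide 110-148; 0% = full assay without inhibitor and 100% = GST in place of GST-Vif; retest series ran down from 100 µM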
HNF4A DNA FP = change in binding of human HNF4 alpha to DNA; HNF4a-FITC DNA binding, fluorescence polarization, 1 h; P41235; activity change, % at 10 µM; 0.3% of 360,000 active; in the data active means activity change above about 30%, passing the limit was not always enough;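 further: controls were the assay level and a saturating level of protein; the project sought stronger binding though the title names inhibitors; some compounds called inactive have numbers as strong as hits; positive values seem to mean higher polarization but the record does not say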
Target sequence (P41235 whole entry, looked up): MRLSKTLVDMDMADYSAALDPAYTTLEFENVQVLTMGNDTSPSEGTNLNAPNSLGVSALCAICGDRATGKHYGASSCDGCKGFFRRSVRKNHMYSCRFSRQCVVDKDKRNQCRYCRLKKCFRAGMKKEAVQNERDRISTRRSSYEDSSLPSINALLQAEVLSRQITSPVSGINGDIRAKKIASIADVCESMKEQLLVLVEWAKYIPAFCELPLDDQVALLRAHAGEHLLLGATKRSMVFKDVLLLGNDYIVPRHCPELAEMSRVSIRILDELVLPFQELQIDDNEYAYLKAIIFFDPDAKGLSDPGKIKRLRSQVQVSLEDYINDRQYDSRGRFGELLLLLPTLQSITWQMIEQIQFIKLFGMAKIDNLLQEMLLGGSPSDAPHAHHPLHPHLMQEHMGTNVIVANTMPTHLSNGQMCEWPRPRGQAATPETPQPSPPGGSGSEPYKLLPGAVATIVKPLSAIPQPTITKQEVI
E coli growth = blocks Escherichia coli growth. 0.21% of 330,000 active. OD600, 23 h; hits give low values. OD600 absorbance (test concentration not listed). AID 1053175;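 active means OD600 absorbance below the run mean of sample wells minus 3.6 SD, in any replicate, cut at about 0.56 in these data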;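 further: stock transfer was 300 nL into about 60 µL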
UCH37 inh = inhibitors of human deubiquitinating enzyme UCH37; Q9Y5K5; purified proteasome/UCH37, Ub-AMC cleavage fluorescence; inhibition, % (concentration not given with the values); 0.33% of 330,000 active; AID 588478;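 active means mean of two replicates above 20%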;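 further: 0% = compound-free wells with enzyme and 100% = wells lacking proteasome; stock transfer was 100 nL into about 20 µL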
Target sequence (Q9Y5K5 whole entry, looked up): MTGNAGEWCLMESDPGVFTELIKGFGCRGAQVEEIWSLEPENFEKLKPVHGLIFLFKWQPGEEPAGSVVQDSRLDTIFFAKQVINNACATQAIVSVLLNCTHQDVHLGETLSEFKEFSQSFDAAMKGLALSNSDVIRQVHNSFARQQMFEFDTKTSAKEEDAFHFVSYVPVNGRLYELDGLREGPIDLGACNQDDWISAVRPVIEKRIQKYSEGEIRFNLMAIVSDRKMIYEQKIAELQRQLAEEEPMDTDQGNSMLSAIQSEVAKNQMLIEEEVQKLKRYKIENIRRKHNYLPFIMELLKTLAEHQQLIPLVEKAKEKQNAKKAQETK
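System: Proteasome-associated human UCH37 deubiquitinase; Input: 0.15 nM proteasome in added enzyme buffer; Also added: Ub-AMC substrate from 1 µM stock; Incubation: 30 min compound-proteasome preincubation then 25 min substrate reaction, room temperature; Detection: fluorescence, ex 355 nm, em 460 nm; Read-out: % inhibition of Ub-AMC cleavage fluorescence; Benchmarks: no-proteasome and no-compound wells.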
Numbers without * were called inactive; i = inactive; u = inconclusive; x = no result given; & = joins results of further samples.

SMILES	FGF22 binding	RanGTP-Impb inh	AF4-AF9 inh	Vif TR-FRET	HNF4A DNA FP	E coli growth	UCH37 inh
CC1CCCC(NC(=O)/C=C/c2c(F)cccc2Cl)C1C (stereo unspecified)	i	-1.5	2.6	x	1.0	0.7	3.4
Cc1ccc(S(=O)(=O)N(C)C[C@H]2OCc3cn(nn3)CCCC(=O)N([C@H](C)CO)C[C@@H]2C)cc1	i	x	-3.7&0.8&4.7	x	2.3	x	x
COC(=O)c1cn(NC(=O)Cn2nc([N+](=O)[O-])c(Cl)c2C)c(=O)c2ccccc12	i	-0.5	2.6	6%	3.9	0.67	2.9
CCc1nc(N=Nc2c(O)[nH]c3ccccc23)c2c3c(sc2n1)CCC3	i	-3.6	-1.0	-1%	-0.3	0.72	3.4
CC(C)(C)c1ccc(C(=O)Nc2c3c(nn2C(C)(C)C)CS(=O)(=O)C3)cc1	i	6.5	1.9	x	2.3	0.7	-2.8
Brc1cccc(CNCc2ccncc2)c1	i	-0.3	-0.7	-2%	-1.5	0.67	3.7
Cc1cccc(NC(=O)CC2(CC(=O)O)CCCC2)c1	i	3.5	-1.3	7%	0.8	0.67	-4.6
Oc1ccccc1OCCOc1ccccc1OCCOc1ccccc1O	i	-1.4	4.2	-11%	-2.1	0.68	4.3
Cc1ccnc(NS(=O)(=O)c2ccc(NC(=O)CN3C(=O)CCC3=O)cc2)n1	i	x	-2.1	-2%	1.1	0.69	2.2
C=CCn1c(=O)c2ccccc2n2c(Sc3nnnn3-c3ccccc3)nnc12	x	-1.2	x	1%	1.5	0.66	1.1
Cc1cc(C)c2c(N)c(C(=O)c3ccccc3)oc2n1	x	5.4	x	0%	-0.8	0.68	0.1
CC(=O)c1ccc2c(c1)N(Cc1ccccc1Cl)C(=O)C(C)S2 (stereo unspecified)	i	x	-0.7	x	1.4	x	x
CCc1cccc(C)c1NC(=O)Cn1nc(C)n2cccc2c1=O	i	3.2	-1.5	-2%	2.5	0.69	2.7
CNC(=O)c1cc(Nc2nnc(-c3ccc(O)cc3)c3ccccc23)ccc1OC	i	-2.4	1.9	8%	-2.4	0.71	-2.7
COc1cc2c(cc1OC(C)=O)C(=O)CCCC2	i	x	-3.0	x	2.6	x	x
COc1ccc(-n2ccnc2SCC(=O)NCc2ccc3c(c2)OCO3)cc1	x	5.5	x	16%	2.4	0.75	2.4
CCC1=Nc2cc(C(=O)NCCCN3CCOCC3)ccc2Sc2ccc(Br)cc21	i	0.9	12	-7%	4.5	0.71	1.8
Cc1ccc(NC(=O)c2cccc(N3C(=O)CCC3=O)c2)nc1	x	-3.7	x	29%	-2.5	0.69	0.1
O=C(NCCc1ccccc1)C1CCCN1C(=O)Nc1cccc(Cl)c1 (stereo unspecified)	i	-0.6	-9.3	1%	-2.1	0.67	0.3
CN(C)c1ccc(/C=C/C(=O)c2cccc(Br)c2)cc1	x	-28	x	5%	136	0.68	-2.0
NC(=O)NCc1ccc(C(=O)OCc2ccncc2)cc1	i	3.3	-1.9	21%	4.7	0.65	1.2
Cc1ccc(NC(=O)COC(=O)C2C3CC4OC(=O)C2C4C3)cc1Cl (stereo unspecified)	i	-1.0	3.2	x	1.5	0.64	2.1
CC(C)(C)[C@@H]1C=C(C(=O)N2CCN(Cc3ccc4c(c3)OCO4)CC2)O[C@H](OCc2ccc(CO)cc2)C1	i	7.4	9.5&5.8	x	-2.7	x	0.9
CC(C)Oc1ccc2c(=O)c(-c3ccccc3)coc2c1	i	-4.0	-1.7	u	1.1	0.69	0.1
CCN(Cc1ccccc1)C(=O)c1oc2ccc(C)cc2c1C	i	0.1	-3.0	x	-2.0	0.64	2.2
Cc1ccc(C(=O)CCC(=O)OCC(=O)Nc2ccccc2SCC#N)cc1	i	x	-1.6	-2%	6.0	0.71	5.3
COc1ccc(C(=O)Nc2ccnn2C2CCN(Cc3ccccn3)CC2)cc1	i	2.6	-2.3	x	-1.8	0.73	-0.1
Nc1cc(C(=O)OCC(=O)NCC2CCCO2)ccc1Cl (stereo unspecified)	x	1.0	x	u	-2.7	0.71	-6.0
CCC(c1nnnn1CCOC)N1CCN(c2nc3ccccc3s2)CC1 (stereo unspecified)	x	0.1	1.5	-8%	0.8	0.71	2.3
COc1cccc(CN2CCC(C(=O)N3CCC(C)CC3)CC2)c1	i	-1.1	-1.0	-4%	8.0	0.67	5.8
Cc1nn(C)c(C(=O)Nc2ccn(Cc3c(F)c(F)cc(F)c3F)n2)c1[N+](=O)[O-]	x	-4.1	x	-5%	0.7	0.65	0.3
O=c1[nH]c(CCC2CCCC2)nc2ccccc12	x	-1.9	x	-6%	-1.5	0.67	2.6
CN1CCN(C(=O)/C(=C/c2ccccc2F)NC(=O)c2ccccc2)CC1	i	2.0	0.1	-3%	1.4	0.62	2.1
O=C(/C=C/c1ccc(F)cc1)c1ccc(N2CCOCC2)cc1	i	4.0	-17	4%	1.7	0.68	2.7
O=C(C[n+]1cc(-c2ccc(Cl)cc2)n2c1CCC2)Nc1nc(-c2ccccc2)cs1	i	-0.2	6.0	1%	-0.3	0.58	7.6
CC(OC(=O)/C=C/c1ccc2ccccc2n1)C(=O)NCc1ccccc1 (stereo unspecified)	i	-0.4	0.5	-4%	2.6	0.62	-0.3
COc1ccc(OCCSc2nnc(-c3ccccc3)n2N)cc1	x	-2.6	x	10%	3.7	0.76	4.3
Cc1ccccc1C(=O)NNC(=O)c1cc(N)cc([N+](=O)[O-])c1	x	-3.9	x	4%	2.1	0.7	3.0
Cc1ccc(C(=O)OCC(=O)Nc2cccc(S(=O)(=O)NC3=NCCCCC3)c2)c(C)c1	i	6.8	0.4	7%	0.1	0.71	4.3
COc1ccc(Cl)cc1N1C(=O)CC(N2CCc3ccccc32)C1=O (stereo unspecified)	x	-0.6	x	7%	0.8	0.67	-0.1
CCOC(=O)C1CCCN(C2=C(NS(=O)(=O)c3ccc(Br)cc3)C(=O)c3ccccc3C2=O)C1 (stereo unspecified)	i	1.4	52*	x	-4.1	0.74	13
NS(=O)(=O)c1ccc(N2CCCCCC2)c([N+](=O)[O-])c1	i	3.3	-2.9	4%	0.2	0.71	3.5
CCOC(=O)N1CCN(S(=O)(=O)c2ccc(C(=O)Nc3nc4ccc(F)cc4s3)cc2)CC1	i	-7.1	-9.5	u	1.6	0.68	-191
CCNC(=O)C1(C)CCN(Cc2cccc(C(F)(F)F)c2)C1 (stereo unspecified)	i	x	1.1	x	-3.1	x	x
O=C(Nc1ccc(Cl)cc1)c1ccncc1	x	1.7	x	1%	-0.5	0.68	-0.1
COc1cccc(OC)c1OCc1cc(C2C3CCCC=C3C(C#N)=C(N)C2(C#N)C#N)c(C)cc1C (stereo unspecified)	x	-12	x	16%	9.6	0.74	-4.0
CCOc1ccc(CNCCCSc2ncccn2)cc1OC	i	3.5	4.7	x	2.0	0.69	1.7
O=C(COc1ccc(S(=O)(=O)NC2CCCCC2)cc1)NCCC1=CCCCC1	x	8.3	x	25%	2.4	0.73	17

Not a retest: 4 of the compounds above.
SMILES	FGF22 binding	RanGTP-Impb inh	AF4-AF9 inh	Vif TR-FRET	HNF4A DNA FP	E coli growth	UCH37 inh
O=C(Nc1ccc(Cl)cc1)c1ccncc1	x	1.7	x	1%	-0.5	0.68	-0.1
COc1cccc(OC)c1OCc1cc(C2C3CCCC=C3C(C#N)=C(N)C2(C#N)C#N)c(C)cc1C (stereo unspecified)	x	-12	x	16%	9.6	0.74	-4.0
CCOc1ccc(CNCCCSc2ncccn2)cc1OC	i	3.5	4.7	x	2.0	0.69	1.7
O=C(COc1ccc(S(=O)(=O)NC2CCCCC2)cc1)NCCC1=CCCCC1	x	8.3	x	25%	2.4	0.73	17

Additional records.
SMILES	FGF22 binding	RanGTP-Impb inh	AF4-AF9 inh	Vif TR-FRET	HNF4A DNA FP	E coli growth	UCH37 inh
O=C1CCCC(O)=C1N=Nc1cccc(C(=O)O)c1	i	0.7	-0.6	5.6µM*	-19	0.66	13
CN1OC(COC(=O)c2ccc(Cl)cc2)CC1c1ccccc1 (stereo unspecified)	x	2.7	x	7%	-1.2	0.69	2.9
COc1ccc(N2C(=O)CSC2c2cccc(F)c2)cc1 (stereo unspecified)	i	3.3	-0.8	-4%	-1.0	0.69	-0.8
S=c1[nH]nc(-c2cccnc2)n1/N=C/c1ccccc1	i	-1.9	-1.8	-4%	1.1	x	x
CCOc1cc(CNCCc2ccc(S(N)(=O)=O)cc2)ccc1OCC(=O)NC(C)(C)C	x	-3.6	x	12%	-1.2	0.8	1.8
Cc1oc(C2CC2)cc1C(=O)O	x	1.3	x	-6%	-0.3	0.7	-1.3
COc1cc(C(=O)OCc2csc(CC(=O)Nc3ccccc3C)n2)ccc1OCC(C)C	i	x	-1.7	-5%	-1.6	0.7	5.7
Cc1cccc(CNCc2ccccc2)c1	i	-0.7	-5.6	1%	3.8	0.69	1.1
O=C(Nc1nncs1)C1c2ccccc2Oc2ccccc21	x	3.5	x	-2%	-2.2	0.65	0.5
COc1cccc(CNC(=O)C2CCCN(S(=O)(=O)N3CC(C)CC(C)C3)C2)c1 (stereo unspecified)	i	-1.0	-1.3	-2%	0.3	0.7	7.5
O=[N+]([O-])c1cnc2nc(-c3ccncc3)nn2c1O	i	4.5	1.0	0%	2.0	x	x
O=C(CN1CCCC1)Nc1cccc(Cl)c1Cl	i	-1.4	1.0	4%	2.7	0.65	4.8
COc1ccc(Nc2nc(CC(C)=O)ns2)cc1OC	x	0.7	x	2%	-1.3	0.74	-0.4
O=C(NCCC1=CCCCC1)c1ccc2c(c1)N(Cc1ccccc1)C(=O)CS2	x	3.6	x	-3%	0.8	0.74	3.4
COc1ccc(C(=O)Nc2ccccc2C)cc1S(=O)(=O)N1CCOCC1	i	3.7	1.0	-6%	0.4	0.7	4.9
O=C1CCCC/C1=C\Nc1ccc(C(=O)O)c(O)c1	i	-11	-0.1	u	-1.3	x	x
CCN(CC)S(=O)(=O)c1ccc(NC(=O)c2ccc(CN3CCOCC3)cc2)cc1	x	-0.3	x	-2%	0.1	0.67	0.0
COc1ccc(N(CC(=O)Nc2cc(C)on2)S(=O)(=O)c2ccc(Cl)cc2)cc1	x	1.0	x	3%	-0.1	0.71	2.0
COc1ccc(C(=O)Oc2ccc(/C=N/NC(=O)c3cccnc3)cc2OC)cc1	i	x	-0.4	7%	0.8	x	x
COc1ccc(-c2c(C#CC(C)(C)O)c3ccccc3n2C)cc1	i	x	2.6	x	2.3	0.72	-2.3
CC1CC(=O)Nc2ccccc2N1C(=O)COc1cc(Cl)ccc1Cl (stereo unspecified)	i	x	0.4	-7%	2.6	0.66	1.8
Cc1ccc(/C(N)=N/OC(=O)CN(C)S(=O)(=O)c2ccc(C)cc2)cc1	i	-2.5	-1.2	3%	-1.3	0.74	2.5
Cc1ccc(OCCN(C)C(=O)c2cc(COc3ccc(F)cc3F)on2)cc1	i	1.1	-3.0	19%	-0.1	0.67	3.1
COc1ccc(OC)c(N2C(=O)c3cccnc3C2=O)c1	i	-4.3	-7.3	x	0.6	0.67	3.2
CC1(C)CC(=O)/C(=C\c2cccc([N+](=O)[O-])c2)C(C)(C)N1	i	-1.0	-16	x	-1.8	0.72	6.5
COc1ccc(C#Cc2cccc(-c3nc(C(=O)NCc4ccc(Oc5ccccc5)cc4)cc4c3[C@@H](CCO)N(S(=O)C(C)(C)C)C4)c2)cc1OC (stereo partly specified)	i	x	12	x	16	x	x

Not all compounds are listed (hit frequency here may not be typical).
